From PubChem BioAssay
NOMO-1 viab: STK33 inhibitor candidate reducing NOMO-1 cell viability | inhibition, % (no concentration beside the values) | AID 2330 | hit rate 7.5% among 37,000 | NOMO-1 AML viability, CellTiter-Glo luminescence, 72 h;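 active = most replicates above 80%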;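 note: wells of about 30 µL received 25 nL stock; 0% = median of vehicle wells and 100% = reference inhibitor level; the first replicate is given; inactives centre near 10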
An asterisk follows results filed as active. A portion of the library; rates above refer to the full screens.

cpd	SMILES	NOMO-1 viab
1	CC(Oc1ccccc1)C(=O)Nc1cc([N+](=O)[O-])ccc1O (stereo unspecified)	3
2	CSC(=Nc1ccccc1C(F)(F)F)N1CCCC1	26
3	O=C(O)/C=C/c1ccc(-c2ccc(Br)cc2)o1	0
4	C[C@@H]1CN([C@H](C)CO)C(=O)c2cc(NC(=O)c3ccncc3)ccc2O[C@@H]1CN(C)Cc1ccc(C(=O)O)cc1	0
5	CCOC(=O)c1cc(-c2ccccc2)sc1NC(=S)Nc1cnn(CC)c1C(N)=O	-11
6	COc1ccc(NC(=O)Nc2ccc3c(c2)C(=O)N([C@H](C)CO)C[C@@H](C)[C@@H](CN(C)S(=O)(=O)c2cn(C)cn2)O3)cc1	21
7	COc1ccc(S(=O)(=O)N(C)C[C@H]2Oc3ccc(NC(=O)C4CC4)cc3C(=O)N([C@H](C)CO)C[C@H]2C)cc1	3
8	C[C@@H]1CN([C@@H](C)CO)C(=O)Cc2cc(NC(=O)C3CCCCC3)ccc2O[C@@H]1CN(C)S(=O)(=O)c1ccccc1	-2

Other results
cpd	SMILES	NOMO-1 viab
9	CC(C)NC(=O)N(C)C[C@H]1Oc2c(cccc2N(C)C)C(=O)N([C@@H](C)CO)C[C@H]1C	-13
10	COc1ccc(CN(C)C[C@@H]2Oc3ccc(NC(=O)Nc4ccc5c(c4)OCO5)cc3CC(=O)N([C@H](C)CO)C[C@@H]2C)cc1	5
11	C[C@H]1CN([C@@H](C)CO)C(=O)Cc2cc(NC(=O)Cc3ccccc3)ccc2O[C@H]1CN(C)C(=O)Nc1ccc(F)cc1	8
12	CC(C(=O)N1CCN(C)CC1)N(c1ccccc1)S(C)(=O)=O (stereo unspecified)	-2
13	O=C(CSc1nnc(-c2ccncc2)n1-c1cccc(C(F)(F)F)c1)c1ccc(F)cc1	2
14	Cc1cccc(-c2noc(CN(C(=O)c3ccc([N+](=O)[O-])c(C)c3)C(C)C)n2)c1	132*
15	C[C@@H]1CN([C@H](C)CO)C(=O)Cc2cc(NC(=O)Cc3cn(C)c4ccccc34)ccc2O[C@H]1CN(C)Cc1ccc(Cl)c(Cl)c1	115*
16	Cc1noc(C)c1NC(=O)Nc1cccc2c1O[C@@H](CN(C)Cc1ccc(C(F)(F)F)cc1)[C@H](C)CN([C@H](C)CO)C2=O	5

Remaining list, next part
cpd	SMILES	NOMO-1 viab
17	COc1ccc(CN(C)C[C@H]2Oc3c(NC(=O)c4cnccn4)cccc3C(=O)N([C@@H](C)CO)C[C@@H]2C)cc1	8
18	CCSc1ccccc1C(=O)Nc1ccc(S(=O)(=O)Nc2ncccn2)cc1	16
19	CC(C)NC(=O)N(C)C[C@@H]1Oc2ccc(NC(=O)Nc3ccc(F)cc3)cc2CC(=O)N([C@H](C)CO)C[C@@H]1C	-13
20	C[C@@H]1CCCCO[C@@H](CN(C)C(=O)NC2CCCCC2)[C@@H](C)CN([C@H](C)CO)C(=O)c2cc(NC(=O)CCC(F)(F)F)ccc2O1	-8
21	Cc1ccccc1NC(=O)c1ccc(OCC(=O)Nc2ccccc2C(F)(F)F)cc1	5
22	C[C@H](CO)N1C[C@H](C)[C@H](CN(C)C)Oc2ccc(NC(=O)CCCN(C)C)cc2C1=O	-6
23	Cc1noc(C)c1NC(=O)N(C)C[C@H]1Oc2ccc(NC(=O)Nc3ccc4c(c3)OCO4)cc2CC(=O)N([C@H](C)CO)C[C@H]1C	-4
24	Cc1ccc(S(=O)(=O)N(C)C[C@@H]2Oc3ccc(NC(=O)C4CC4)cc3CC(=O)N([C@H](C)CO)C[C@H]2C)cc1	11

(continued)
cpd	SMILES	NOMO-1 viab
25	Cc1ccc(NC(=O)CC(N)C(=O)O)cc1 (stereo unspecified)	22
26	C[C@@H]1CN([C@@H](C)CO)C(=O)c2cc(N(C)C)ccc2O[C@@H]1CN(C)S(C)(=O)=O	16
27	O=C(CSc1nnc2scc(-c3ccccc3)n12)Nc1nsc(-c2ccccc2)n1	0
28	C[C@@H]1CN([C@H](C)CO)C(=O)c2cccc(NC(=O)Nc3ccc(C(F)(F)F)cc3)c2O[C@@H]1CN(C)Cc1ccncc1	8
29	CC(=O)c1ccc(N2CCN(C(=S)Nc3ccc(S(=O)(=O)Nc4ncccn4)cc3)CC2)cc1	26
30	C[C@H]1CN([C@@H](C)CO)C(=O)c2cc(NC(=O)CCCN(C)C)ccc2O[C@@H]1CN(C)C(=O)Nc1ccc2c(c1)OCO2	-7
31	Cc1cc(C(=O)Nc2cccc3c2O[C@@H](CN(C)C(=O)Nc2cccc4ccccc24)[C@@H](C)CN([C@@H](C)CO)C3=O)n(C)n1	21
32	C[C@@H]1CCCCO[C@@H](CN(C)C(=O)Cc2ccccc2)[C@@H](C)CN([C@H](C)CO)C(=O)c2cc(NC(=O)CCCN(C)C)ccc2O1	18

Additional compounds.
cpd	SMILES	NOMO-1 viab
33	COc1ccc(S(=O)(=O)n2cc(-c3ccc(C)cc3)c(N)n2)c(OC)c1	25
34	C[C@H](CO)N1C[C@H](C)[C@@H](CN(C)S(=O)(=O)c2ccccc2)Oc2ccc(NC(=O)Nc3cccc4ccccc34)cc2C1=O	4
35	C[C@@H]1CCCCO[C@@H](CN(C)C(=O)C2CCCCC2)[C@@H](C)CN([C@H](C)CO)C(=O)c2cc(NS(=O)(=O)c3ccccc3)ccc2O1	101*
36	C[C@H]1CN([C@@H](C)CO)C(=O)c2cccc(NC(=O)C3CCOCC3)c2O[C@@H]1CN(C)S(=O)(=O)c1cn(C)cn1	5
37	Cc1noc(C)c1NC(=O)N(C)C[C@@H]1Oc2c(NC(=O)c3ccc(-c4nccs4)cc3)cccc2C(=O)N([C@@H](C)CO)C[C@@H]1C	-7
38	CN(CC(=O)O)C(=O)c1ccc(S(=O)(=O)N2CCCC2)cc1	5
39	C[C@@H]1O[C@@H](OC[C@H]2O[C@@H](OCCc3ccccc3)[C@H](O)[C@@H](O)[C@@H]2O)[C@H](O)[C@H](O)[C@H]1O	5
40	Cc1ccc(S(=O)(=O)N(C)CC(=O)Nc2ccccc2[N+](=O)[O-])cc1	14

Next results follow:
cpd	SMILES	NOMO-1 viab
41	C[C@H]1CN([C@@H](C)CO)C(=O)c2cccc(NS(=O)(=O)c3ccc(F)cc3)c2O[C@H]1CN(C)Cc1ccc(C(=O)O)cc1	6
42	Cc1cc(C)nc(NS(=O)(=O)c2ccc(NC(=S)NC(=O)c3ccccc3)cc2)n1	-4
43	C[C@@H]1CN([C@@H](C)CO)C(=O)c2cc(NC(=O)CCCN(C)C)ccc2O[C@@H]1CN(C)Cc1ccncc1	17
44	C[C@@H]1CN([C@H](C)CO)C(=O)c2cccc(NC(=O)c3cnccn3)c2O[C@H]1CN(C)C(=O)Nc1cccc2ccccc12	6
45	COC(=O)c1cccc(NC(=O)CN(c2ccc(Br)c(C)c2)S(C)(=O)=O)c1C	36
46	C[C@@H]1CCCCO[C@@H](CN(C)C)[C@@H](C)CN([C@H](C)CO)C(=O)c2cc(NC(=O)NC3CCCCC3)ccc2O1	31
47	COc1ccc(-c2ccc(C#N)c(SCC(=O)Nc3cccc(C(F)(F)F)c3)n2)cc1	-3
48	Cc1noc(C)c1NC(=O)N(C)C[C@@H]1Oc2c(NS(=O)(=O)c3ccc(Cl)cc3)cccc2C(=O)N([C@@H](C)CO)C[C@@H]1C	-12

Following part.
cpd	SMILES	NOMO-1 viab
49	COc1ccc(NC(=O)Nc2cccc3c2O[C@@H](CN(C)S(=O)(=O)c2ccc(Cl)cc2)[C@H](C)CN([C@@H](C)CO)C3=O)cc1	6
50	C/C=C(\C)C(=O)O[C@@H]1[C@@H](OC(C)=O)C2[C@@]3(C)CC[C@H](OC4CC(OC)C(OC5CC(OC)C(OC6CC(OC)C(OC7OC(C)C(OC8OC(CO)C(O)C(O)C8O)C(OC)C7O)C(C)O6)C(C)O5)C(C)O4)CC3=CC[C@@]2(O)[C@@]2(O)CC[C@H](C(C)=O)[C@@]12C (stereo partly specified)	30
51	COc1ccc(S(=O)(=O)Nc2ccc3c(c2)C(=O)N([C@H](C)CO)C[C@H](C)[C@H](CN(C)C(=O)NC(C)C)O3)cc1	20
52	C[C@H]1CN([C@@H](C)CO)C(=O)c2cc(NC(=O)Cn3cnnn3)ccc2O[C@H]1CN(C)C(=O)Nc1ccccc1	12
53	CCC/C=C/C=C/C1C[C@@H](O)[C@@H](O)C(=O)[C@H]1CO (stereo partly specified)	34
54	O=C(NCC(O)c1ccccc1)c1ccc(Cl)c(S(=O)(=O)N2CCOCC2)c1 (stereo unspecified)	24
55	Cc1ccc(OCC(=O)Nc2cc(Cl)ccc2N2CCOCC2)c(C)c1	44
56	COc1ccc(NC(=O)Nc2ccc3c(c2)C(=O)N([C@H](C)CO)C[C@H](C)[C@H](CN(C)C(=O)c2ccccc2)OCCCC[C@@H](C)O3)cc1	-2

Single entries from the entries so far.
Reading for compound 55 in NOMO-1 viab: 44
Reading for compound 54 in NOMO-1 viab: 24
Reading for compound 51 in NOMO-1 viab: 20
Reading for compound 56 in NOMO-1 viab: -2
Reading for compound 53 in NOMO-1 viab: 34
Reading for compound 50 in NOMO-1 viab: 30

Later entries:
cpd	SMILES	NOMO-1 viab
57	CC(C)NC(=O)Nc1cccc2c1O[C@@H](CN(C)Cc1ccccc1)[C@H](C)CN([C@@H](C)CO)C2=O	-4
58	C[C@@H]1CN([C@H](C)CO)C(=O)c2cc(NC(=O)C3CCCCC3)ccc2O[C@@H]1CN(C)Cc1ccccc1	-11
59	C[C@@H]1CN([C@H](C)CO)C(=O)c2cc(NS(=O)(=O)c3ccccc3)ccc2O[C@H]1CN(C)CC1CCCCC1	22
60	COc1ccc(NC(=O)N(C)C[C@@H]2OCCCC[C@@H](C)Oc3ccc(NC(=O)Nc4cccc5ccccc45)cc3C(=O)N([C@H](C)CO)C[C@@H]2C)cc1	5
61	COc1ccc(C)cc1NC(=O)c1ccccc1N(C)S(=O)(=O)c1ccccc1	32
62	CS(=O)(=O)N(CC(=O)NC1CC1)c1cccc(C(F)(F)F)c1	12
63	C[C@@H]1CCCCO[C@@H](CN(C)S(=O)(=O)c2cccs2)[C@@H](C)CN([C@H](C)CO)C(=O)c2cc(NS(=O)(=O)c3cccs3)ccc2O1	26
64	Cc1cc(C(=O)Nc2cccc3c2O[C@@H](CN(C)S(=O)(=O)c2ccc(Cl)cc2)[C@@H](C)CN([C@H](C)CO)C3=O)n(C)n1	29

Filtered by structure: the compounds so far with a thiophene ring, fused or not (2)
cpd	SMILES	NOMO-1 viab
5	CCOC(=O)c1cc(-c2ccccc2)sc1NC(=S)Nc1cnn(CC)c1C(N)=O	-11
63	C[C@@H]1CCCCO[C@@H](CN(C)S(=O)(=O)c2cccs2)[C@@H](C)CN([C@H](C)CO)C(=O)c2cc(NS(=O)(=O)c3cccs3)ccc2O1	26

The list continues:
cpd	SMILES	NOMO-1 viab
65	Cc1cc(C(=O)Nc2cccc3c2O[C@H](CN(C)CC2CC2)[C@H](C)CN([C@@H](C)CO)C3=O)n(C)n1	-17
66	Cc1ccc(S(=O)(=O)N(C)C[C@@H]2Oc3ccc(NC(=O)C4CCCCC4)cc3C(=O)N([C@@H](C)CO)C[C@@H]2C)cc1	35
67	CC(C)(C)c1ccc(OCC(O)CN2CCN(CCO)CC2)cc1 (stereo unspecified)	-8
68	CC(C)=CCC[C@@](C)(O)[C@H]1CC[C@]2(C)C1CC(O)C1[C@]3(C)C(CC[C@]12C)C(C)(C)[C@@H](O)C[C@H]3O (stereo partly specified)	59
69	O=C(COc1ccc([N+](=O)[O-])cc1)Nc1ccc2oc(-c3ccccc3Br)nc2c1	-16
70	O=C(CSc1nnc(-c2ccccc2O)n1-c1ccccc1)Nc1ccc(Oc2ccccc2)cc1	1
71	CSc1nc(C)nc(N/C=C(\C#N)S(=O)(=O)c2ccc(C)cc2)n1	24
72	Cc1ccc(-n2c(SCC(=O)c3ccccc3)nnc2-c2ccncc2)cc1C	7

Some of these compounds in order of heavy-atom count, falling:
cpd	SMILES	NOMO-1 viab
66	Cc1ccc(S(=O)(=O)N(C)C[C@@H]2Oc3ccc(NC(=O)C4CCCCC4)cc3C(=O)N([C@@H](C)CO)C[C@@H]2C)cc1	35
65	Cc1cc(C(=O)Nc2cccc3c2O[C@H](CN(C)CC2CC2)[C@H](C)CN([C@@H](C)CO)C3=O)n(C)n1	-17
68	CC(C)=CCC[C@@](C)(O)[C@H]1CC[C@]2(C)C1CC(O)C1[C@]3(C)C(CC[C@]12C)C(C)(C)[C@@H](O)C[C@H]3O (stereo partly specified)	59

Next results
cpd	SMILES	NOMO-1 viab
73	Cc1noc(C)c1NC(=O)N(C)C[C@@H]1Oc2c(NS(=O)(=O)c3ccc(Cl)cc3)cccc2C(=O)N([C@H](C)CO)C[C@H]1C	-18
74	COc1cc(-c2cc(=O)c3c(O)c(OC)c(OC)cc3o2)cc(OC)c1O	51
75	COc1ccc(NC(=O)N(C)C[C@@H]2OCCCC[C@@H](C)Oc3ccc(NS(=O)(=O)c4ccccc4)cc3C(=O)N([C@H](C)CO)C[C@@H]2C)cc1	10
76	N#C/C(=C\Nc1cc(C(F)(F)F)cc(C(F)(F)F)c1)S(=O)(=O)Cc1ccc(Cl)cc1	50
77	O=C(NCc1ccco1)c1cccc(S(=O)(=O)N2CCCCC2)c1	33
78	Cc1noc(C)c1NC(=O)Nc1ccc2c(c1)C(=O)N([C@H](C)CO)C[C@@H](C)[C@@H](CN(C)C(=O)NC(C)C)O2	7
79	COC(=O)c1cc(-c2ccccc2)sc1NC(=S)Nc1cn(C)nc1C	40
80	C[C@H]1CN([C@@H](C)CO)C(=O)c2cc(N(C)C)ccc2O[C@H]1CN(C)S(=O)(=O)c1ccc(F)cc1	-5
81	CC(Oc1ccc(C(C)(C)C)cc1)C(=O)Nc1ncn[nH]1 (stereo unspecified)	6
82	O=C(Cn1cccc(C(F)(F)F)c1=O)c1ccc(Cl)cc1	-16

Screen by screen, as entered above:
NOMO-1 viab for entries 76–82, in order: 50, 33, 7, 40, -5, 6, -16
